# NPYLR7 ag: activates Aedes aegypti NPYLR7 receptor; HEK293T NPYLR7/Galpha15, GCaMP6s calcium fluorescence; AID 1259423; actives 0.15% (n = 270,000); activation, % at 10 µM; in the data active = activation above about 40%;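 also: 0% = vehicle and 100% = reference agonist at the receptor; some compounds past the cut are filed as inactive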
# NPYLR7 ag max-min: second read-out of NPYLR7 ag, no call of its own (marks repeat the call); activation, %; measured here: Max-Min RFU normalised activation; some inactives read as strong as hits;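 span of the calcium signal over five minutes; 0% = vehicle and 100% = native peptide agonist; compound fluorescence can raise it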
# Active calls of the source: *; & = joins results of further samples. Not all compounds are listed, so the mix of outcomes need not match the whole.
> COc1ccc(-c2n[nH]c(=S)n2-c2ccc(Cl)cc2)cc1
  NPYLR7 ag = 1
  NPYLR7 ag max-min = 3
> CC1CCCN(c2cc3c(cc2F)c(=O)c(S(=O)(=O)c2ccccc2)cn3C)C1 (stereo not given)
  NPYLR7 ag = 22
  NPYLR7 ag max-min = 22
> COCC(=O)N1CCC2(CC1)CN(Cc1cc3ccccc3o1)CCN2C
  NPYLR7 ag = 3
  NPYLR7 ag max-min = 0
> COc1ccc(C(=O)C2CCCN(C(=O)C3=CCCCC3)C2)cc1OC (stereo not given)
  NPYLR7 ag = 3
  NPYLR7 ag max-min = -1
> C=CCn1c(P(=O)(O)c2ccccc2)nc2ccccc21
  NPYLR7 ag = -6
  NPYLR7 ag max-min = -12
> Cc1cc2oc(=O)cc(-c3cc4ccccc4o3)c2cc1OCC(N)=O
  NPYLR7 ag = -2
  NPYLR7 ag max-min = -6
> Cc1ccc(NC(=O)C2(C)CCN2CC2CCOC2)cc1O (stereo not given)
  NPYLR7 ag = 4
  NPYLR7 ag max-min = -2
> COC(=O)C1=C(C)NC(=O)NC1c1cc2c(cc1Cl)OCO2 (stereo not given)
  NPYLR7 ag = 1
  NPYLR7 ag max-min = -4
> O=C(NCC(c1cccs1)N1CCOCC1)c1cc2ccccc2cc1NC(=O)C1CC1 (stereo not given)
  NPYLR7 ag = 6
  NPYLR7 ag max-min = 1
> CC(=O)NCC1CCCN(Cc2cccc(Cn3cccn3)c2)C1 (stereo not given)
  NPYLR7 ag = 2
  NPYLR7 ag max-min = 1
> CC(C)C(=O)Nc1ccc(SCC(=O)N2CCCCCC2)nn1
  NPYLR7 ag = 3
  NPYLR7 ag max-min = 2
> Cc1nc(CN2CCN(c3nc(C(F)F)nc4ccccc34)CC2)no1
  NPYLR7 ag = 9
  NPYLR7 ag max-min = 7
> COc1cccc(Cc2nsc(N3CCN(CCNC(=O)c4ccc5c(c4)OCO5)CC3)n2)c1
  NPYLR7 ag = 9
  NPYLR7 ag max-min = 12
> COc1ccc(C)cc1NC(=O)c1cc(Cl)c2c(c1)OCO2
  NPYLR7 ag = 2
  NPYLR7 ag max-min = 0
> O=S(=O)(NCc1ccco1)c1cc(Cl)ccc1Cl
  NPYLR7 ag = 1
  NPYLR7 ag max-min = 5

# 3 compounds from above, sorted by heavy-atom count, smallest number first:
> C=CCn1c(P(=O)(O)c2ccccc2)nc2ccccc21
  NPYLR7 ag = -6
  NPYLR7 ag max-min = -12
> CC(=O)NCC1CCCN(Cc2cccc(Cn3cccn3)c2)C1 (stereo not given)
  NPYLR7 ag = 2
  NPYLR7 ag max-min = 1
> O=C(NCC(c1cccs1)N1CCOCC1)c1cc2ccccc2cc1NC(=O)C1CC1 (stereo not given)
  NPYLR7 ag = 6
  NPYLR7 ag max-min = 1

# Next part:
> Cc1ccc(-n2ncc3c(=O)n(NC(=O)/C=C/c4ccccc4)cnc32)cc1
  NPYLR7 ag = 1
  NPYLR7 ag max-min = -1
> N#CCCN(/N=C\c1ccccc1)C(N)=S
  NPYLR7 ag = 1
  NPYLR7 ag max-min = 4
> O=c1/c(=C/c2ccc(-c3ccccc3[N+](=O)[O-])o2)sc2nc(C3COc4ccccc4O3)nn12 (stereo not given)
  NPYLR7 ag = -7
  NPYLR7 ag max-min = -11
> Ic1cccc(-c2nc(-c3ccncc3)no2)c1
  NPYLR7 ag = 1
  NPYLR7 ag max-min = 3
> COCCNC(=O)c1cc(NC(=O)Nc2ccc(Br)cc2)ccc1N1CCCC1
  NPYLR7 ag = 22
  NPYLR7 ag max-min = 31
> CCn1ccnc1CN(C)Cc1nc(-c2ccc(C(=O)OC)cc2)no1
  NPYLR7 ag = 14
  NPYLR7 ag max-min = 2
> Cc1cc(C(=O)N(Cc2ccccc2)[C@@H]2C[C@@H]3COCC[C@]3(c3ccccc3)C2)n(C)n1
  NPYLR7 ag = 20
  NPYLR7 ag max-min = 25
> COc1cccc(C(=O)N(Cc2nccn2Cc2ccc(C(F)(F)F)cc2)CC2CCCO2)c1 (stereo not given)
  NPYLR7 ag = 6
  NPYLR7 ag max-min = 9
> O=C(OC1CCCCC1=O)c1ncc(Cl)c(Cl)c1Cl (stereo not given)
  NPYLR7 ag = -1&-5
  NPYLR7 ag max-min = 25&-5
> CC(=O)NCCC(=O)Nc1ccccc1C(=O)Nc1c(C)cccc1C
  NPYLR7 ag = 18
  NPYLR7 ag max-min = 6
> c1ccc(CN2CCC(NCc3ccccc3-n3ccnc3)CC2)nc1
  NPYLR7 ag = 10
  NPYLR7 ag max-min = 8
> O=C(C1CCCCC1)N(CCN1CCOCC1)c1nc2c(F)cccc2s1
  NPYLR7 ag = 17
  NPYLR7 ag max-min = 13
> CCCC1CCN(C(=O)c2cc(S(=O)(=O)NC(C)(C)C)ccc2C)C1 (stereo not given)
  NPYLR7 ag = 0
  NPYLR7 ag max-min = -3
> COC(=O)C1=C(C)N(Cc2ccccc2)C(=O)/C1=C\c1ccc(C(=O)O)cc1
  NPYLR7 ag = -3
  NPYLR7 ag max-min = 27
> Oc1ccc(Cl)cc1Nc1nc2ccccc2n2nnnc12
  NPYLR7 ag = 1
  NPYLR7 ag max-min = -3

# Exported as tab-separated lines: 6 of the compounds above.
Molecule	NPYLR7 ag	NPYLR7 ag max-min
O=C(OC1CCCCC1=O)c1ncc(Cl)c(Cl)c1Cl (stereo not given)	-1&-5	25&-5
CC(=O)NCCC(=O)Nc1ccccc1C(=O)Nc1c(C)cccc1C	18	6
c1ccc(CN2CCC(NCc3ccccc3-n3ccnc3)CC2)nc1	10	8
O=C(C1CCCCC1)N(CCN1CCOCC1)c1nc2c(F)cccc2s1	17	13
CCCC1CCN(C(=O)c2cc(S(=O)(=O)NC(C)(C)C)ccc2C)C1 (stereo not given)	0	-3
COC(=O)C1=C(C)N(Cc2ccccc2)C(=O)/C1=C\c1ccc(C(=O)O)cc1	-3	27

# Additional results
> COc1ccccc1N1CCN(C(=O)c2csc(CSc3nnc(C)n3-c3ccccc3)n2)CC1
  NPYLR7 ag = 0
  NPYLR7 ag max-min = -2
> O=C(c1ccc(-c2cc(-c3cccc(C(F)(F)F)c3)n[nH]2)cc1)N1CCc2ccccc2C1
  NPYLR7 ag = -2
  NPYLR7 ag max-min = 8
> O=C(NC1CCN(C(=O)NCC(F)(F)F)CC1)c1ccc(F)cc1
  NPYLR7 ag = 11
  NPYLR7 ag max-min = 10
> CNC(=O)[C@@H]1[C@@H](OC(=O)Nc2ccccc2)C(=O)N(C)C12CCN(C(=O)OCc1ccccc1)CC2
  NPYLR7 ag = 7
  NPYLR7 ag max-min = 16
> Cc1cc(-n2nc(C)nc2-c2ccc(C3CCCN3)s2)ccn1 (stereo not given)
  NPYLR7 ag = -2
  NPYLR7 ag max-min = 6
> CCN1C(=O)NC(c2ccccc2[N+](=O)[O-])C(C(=O)OC2CCCCC2)=C1C (stereo not given)
  NPYLR7 ag = -2
  NPYLR7 ag max-min = -9
> O=C(c1ccc([N+](=O)[O-])cc1)N(CCN1CCOCC1)c1nc2c(F)cc(F)cc2s1
  NPYLR7 ag = 10
  NPYLR7 ag max-min = 3
> CCOC(=O)c1ccc2c(c1)nc(SCc1cccc(I)c1)n2Cc1ccccn1
  NPYLR7 ag = 11
  NPYLR7 ag max-min = 14
> C=CCc1cccc2cc(C(=O)N3CCCCC3)c(=O)oc12
  NPYLR7 ag = -5
  NPYLR7 ag max-min = -10
> CCOCCCn1c(SCc2cc(Br)cc(Br)c2)nc2cc(C(=O)OCC)ccc21
  NPYLR7 ag = -7
  NPYLR7 ag max-min = -11
> Cc1nn2c(c1-c1ccccc1)NC(CO)CC2=O (stereo not given)
  NPYLR7 ag = -10
  NPYLR7 ag max-min = -14
> O=C(COC(=O)c1ccccc1Br)c1ccc(NC(=O)c2ccccc2)cc1
  NPYLR7 ag = 4
  NPYLR7 ag max-min = 4
> COc1ccc(C)cc1NC(=O)c1cn(C)nc1OC
  NPYLR7 ag = 0
  NPYLR7 ag max-min = 3
> CCn1cc(Cn2cc(CC(C)c3ccccc3)nn2)cn1 (stereo not given)
  NPYLR7 ag = -2
  NPYLR7 ag max-min = 6
> Cc1nc(NCCNC(=O)/C=C/c2ccccc2)cc(N(C)C)n1
  NPYLR7 ag = -1
  NPYLR7 ag max-min = -1

> Cc1cc(Cl)ccc1NC(=O)CN(C)S(=O)(=O)c1cccnc1
  NPYLR7 ag = 0
  NPYLR7 ag max-min = -2
> COc1cc2c(cc1CNC(=O)CC(=O)Nc1cccc(C)c1C)OCCO2
  NPYLR7 ag = 1
  NPYLR7 ag max-min = -4
> CC1Cc2ccccc2N1C(=O)c1ccc(=O)n(Cc2cccc(F)c2)n1 (stereo not given)
  NPYLR7 ag = 4
  NPYLR7 ag max-min = 1
> O=C(CCCn1cnnn1)N1CCOC(c2ccc(Cl)c(Cl)c2)C1 (stereo not given)
  NPYLR7 ag = 3
  NPYLR7 ag max-min = -1
> O=C(Nc1ccccc1)c1ccccc1O
  NPYLR7 ag = 4
  NPYLR7 ag max-min = 6
> CC(O)c1cn(C2CCN(Cc3cc4ccccc4o3)CC2)nn1 (stereo not given)
  NPYLR7 ag = -4
  NPYLR7 ag max-min = -14
> Cc1c(C(=O)N2CC=CCC2)cnc2c(-c3cccc(C(F)(F)F)c3)cnn12
  NPYLR7 ag = 5
  NPYLR7 ag max-min = -4
> COCCCN(Cc1csc(COc2cccc(C)c2)n1)C(=O)c1ccco1
  NPYLR7 ag = 1
  NPYLR7 ag max-min = 4
> O=C(CN(Cc1c(F)cccc1F)C1CC1)N(CCc1c[nH]c2ccccc12)Cc1ccc(Cl)c(Cl)c1
  NPYLR7 ag = -2
  NPYLR7 ag max-min = 3
> O=C(NCC1CCCC1)c1csc(Br)c1
  NPYLR7 ag = 0
  NPYLR7 ag max-min = -2
> Cc1nc(C)c(CN2CCn3c(nnc3C(=O)NC3CCCCC3)C2)s1
  NPYLR7 ag = 7
  NPYLR7 ag max-min = 3
> O=C(CCCNC(=O)C12CC3CC(CC(C3)C1)C2)NC1C2CC3CC(C2)CC1C3 (stereo not given)
  NPYLR7 ag = 9
  NPYLR7 ag max-min = 15
> O=C(CCc1nc(-c2ccc(F)cc2)no1)Nc1ccccc1C(=O)NC1CC1
  NPYLR7 ag = 0
  NPYLR7 ag max-min = 4
> Cc1ncc(C(=O)N2CCCC(N(C)CCN(C)C)C2)c(-c2ccccc2)n1 (stereo not given)
  NPYLR7 ag = 3
  NPYLR7 ag max-min = 0

# One compound at a time (already shown). Order of values: NPYLR7 ag | NPYLR7 ag max-min
# O=C(CCCNC(=O)C12CC3CC(CC(C3)C1)C2)NC1C2CC3CC(C2)CC1C3 (stereo not given) in the list: 9 | 15
# O=C(NCC1CCCC1)c1csc(Br)c1 in the list: 0 | -2
# Cc1nc(C)c(CN2CCn3c(nnc3C(=O)NC3CCCCC3)C2)s1 in the list: 7 | 3
# CC1Cc2ccccc2N1C(=O)c1ccc(=O)n(Cc2cccc(F)c2)n1 (stereo not given) in the list: 4 | 1
# Cc1ncc(C(=O)N2CCCC(N(C)CCN(C)C)C2)c(-c2ccccc2)n1 (stereo not given) in the list: 3 | 0

# Assay outcomes (PubChem)
